# TRPML1 blocker = human mucolipin-1 channel inhibition; Q9GZU1; TRPML1-inducible cells, Ca2+ dye fluorescence, FDSS; stronger effect = lower value; inhibition of EC80 agonist-evoked calcium signal; activity change, negative = inhibition, % (test concentration not listed); 390,000 compounds, 0.02% hits; in the data active means activity change below about -50%; inconclusive means about -30% to -50%; inactive means above about -30%;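 note: stimulus is agonist 54-4 at its EC80 concentration; % is set by controls: 0 for no effect and ±100 for the full control effect; compound concentration not given in the record; the text of the record puts the active cut at -80%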
#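 Calcium fluorescence in TRPML1-DL cells induced overnight with Tet: a 110 s read after compound pin addition, then a 110 s antagonist read after challenge with 54-4 at 4 uM final (EC80).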
# TRPML1 ag = activates the human TRPML1 channel. 410,000 compounds, 0.12% hits. activation, % (concentration not given with the values). TRPML1-expressing cells, Ca2+ dye fluorescence, FDSS; host cell line not named in the record; reference of the full effect not given here; in the data active = activation above about 50%; inconclusive = about 30% to 50%; inactive = below about 30%; note: 0% is about no effect; the text of the record puts the active cut at 80%
#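 Kinetic FDSS Ca2+ read in Tet-induced TRPML1-DL cells (ABD Ca8 dye plus quencher, 45-90 min RT loading): baseline, then compound, then 110 s agonist window; EC80 agonist 54-4 at 4uM final added afterwards for a 110 s antagonist window.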
# Six1-Eya2 blk = inhibitors of human Six1/Eya2 interaction; Q15475+O00167; AlphaScreen GST-Six1/His-Eya2 binding, biochemical; stronger effect = lower value; control for the full effect not named in the record; activity change, % (concentration not given with the values); 360,000 compounds, 0.56% hits; in the data active = activity change below about -65%; inconclusive = about -30% to -65%; inactive = above about -30%; note: % is set by controls: 0 for no effect and ±100 for the full control effect
# Target sequence (O00167 whole entry, looked up): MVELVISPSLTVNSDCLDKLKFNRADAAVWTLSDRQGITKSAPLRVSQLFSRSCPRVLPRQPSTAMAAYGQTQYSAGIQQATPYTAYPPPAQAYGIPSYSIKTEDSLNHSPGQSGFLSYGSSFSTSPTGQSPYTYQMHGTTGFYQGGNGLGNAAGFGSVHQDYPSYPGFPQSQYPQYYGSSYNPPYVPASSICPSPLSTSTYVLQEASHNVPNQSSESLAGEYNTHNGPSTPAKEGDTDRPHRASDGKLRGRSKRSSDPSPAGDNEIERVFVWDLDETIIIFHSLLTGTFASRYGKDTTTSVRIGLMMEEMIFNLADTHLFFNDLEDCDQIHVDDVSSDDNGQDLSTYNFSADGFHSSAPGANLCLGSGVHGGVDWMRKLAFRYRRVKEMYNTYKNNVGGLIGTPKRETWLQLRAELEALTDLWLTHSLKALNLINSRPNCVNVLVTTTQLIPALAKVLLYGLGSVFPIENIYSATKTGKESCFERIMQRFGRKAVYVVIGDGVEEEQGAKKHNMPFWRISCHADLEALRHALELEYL
# Target sequence (Q15475 whole entry, looked up): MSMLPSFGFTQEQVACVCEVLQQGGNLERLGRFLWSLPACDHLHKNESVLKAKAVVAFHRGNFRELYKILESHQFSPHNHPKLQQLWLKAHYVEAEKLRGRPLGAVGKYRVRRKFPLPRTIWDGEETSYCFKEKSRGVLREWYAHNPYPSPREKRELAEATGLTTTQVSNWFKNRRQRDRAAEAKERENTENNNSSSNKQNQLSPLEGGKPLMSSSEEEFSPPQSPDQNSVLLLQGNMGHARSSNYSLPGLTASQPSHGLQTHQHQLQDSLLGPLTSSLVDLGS
#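 AlphaScreen luminescence read after one hour at 37 °C in darkness. Pin-transferred compounds met GST-Six1 and His-Eya2 protein (5X stock 250 nM/500 nM) plus glutathione donor and Ni-chelate acceptor beads (5X, 50 ug/mL).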
# CtBP-E1A blk = inhibitors of CtBP/E1A interaction. AlphaScreen GST-E1A/His-CtBP binding, 1536-well; stronger effect = lower value; control for the full effect not named in the record. 340,000 compounds, 0.49% hits. activity change, % (no concentration beside the values). AID 651724; in the data active means activity change below about -65%; inconclusive means about -30% to -65%; inactive means above about -30%; note: % is set by controls: 0 for no effect and ±100 for the full control effect
#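 Protein mix (5X: 125 nM each GST-E1A, His-CtBP) was incubated with pinned compound 2 h at 37 deg C in dark, in 50 mM Tris pH 8.0 buffer with 300 mM NaCl. Glutathione donor and nickel acceptor beads followed; AlphaScreen signal read after 1 h.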
# D2 ag = agonists of human D2 dopamine receptor (beta-arrestin) | P14416 | DiscoveRx PathHunter D2 beta-arrestin, luminescence, 90 min; 100% = 57 uM dopamine signal | activation, % (concentration not given with the values) | 360,000 compounds, 0.084% hits | AID 624465; in the data active = activation above about 40%; inconclusive = about 15% to 40%; inactive = below about 15%; note: the text of the record calls up to 30% inactive
#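 Agonist mode: compounds alone added to overnight-plated D2 PathHunter cells for 90 min at 37 C, with 57 uM final dopamine (EC100) defining full response. Beta-arrestin recruitment detected by chemiluminescent reagent, read after 1 h at ambient temperature.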
# PINK1 modulator = modulators of PINK1 expression. PINK1 immunofluorescence, high-content cytometry, 24 h. Potency, µM (top dose mostly 76.6 µM), for the others: top-dose activation (PINK1 increase), actives largely listed as activators. 410,000 compounds, 0.2% hits; active = well fitted activation curve with a large enough effect; inconclusive = small, poorly fitted or top-dose-only effect; inactive = flat fitted curve, though single readings scatter; cell line not stated here;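 note: potency is the fitted concentration of half-maximal effect; % of control where 0% means no effect; nearly all actives have a fitted effect of over 65% in size; a mitochondrial uncoupler was the plate control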
#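 Decision-based qHTS: stable cells, 24 h exposure to five compound concentrations, CCCP as control. Fixed cells stained for PINK1 plus nuclear, mitochondrial and cell markers, cytometer read.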
# * = called active by the depositor; ? = inconclusive; . = no result given; [ ] = dose if it differs, or a comment.
1	CCC(c1nnnn1-c1ccc2c(c1)OCCO2)N1CCN(c2ccc(C(F)(F)F)cn2)CC1 (centres undefined)
2	CCOC(OCC)c1ccc(/C=C\c2nccc(N)n2)cc1
3	CCc1ccccc1-n1nnnc1SCC(=O)Nc1ccc(N2CCN(C)CC2)cc1
4	CCOc1ccc2nc(NC(=O)c3ccc(OCC4CCCO4)cc3)sc2c1 (centres undefined)
5	O=S(=O)(c1ccccc1)N(Cc1ccc(Cl)cc1)c1ccncc1
6	CCOC(=O)C1=C(CN2CCCCC2)NC(=O)NC1c1ccc(OC)cc1 (centres undefined)
7	Cn1cccc1/C=N/NC(N)=S
8	CCOC(=O)CNc1nc(Cl)nc(NC(C)(C)C)n1
9	CN(C)CCN(C(=O)CCS(=O)(=O)c1ccccc1)c1nc2cc3c(cc2s1)OCO3
10	CCOC1OC(=O)C(Cl)=C1Nc1ccc(C)cc1 (centres undefined)

Assay by compound,1,2,3,4,5,6,7,8,9,10
TRPML1 blocker,.,35,-12,-12,20,13,-12,-12,26,0
TRPML1 ag,-0.2,0.3,1.0,2.9,0.2,-0.1,0.0,0.9,-0.1,0.9
Six1-Eya2 blk,-11,6,-10,2,4,.,-1,-2,10,-1
CtBP-E1A blk,-2,.,.,-13,13,.,0,12,12,14
D2 ag,.,-1.2,-1.5,-2.1,1.1,.,3.7,5.1,-2.5,-1.7
PINK1 modulator,1.5%,5.3%,0.7%,3.8%,1.1%,1.1%,-0.6%,-2.3%,8.4%,0.4%

11	CN(Cc1nc(-c2cnccn2)no1)CC1(c2ccccc2)CC1(C)C (centres undefined)
12	Cc1ccc(S(=O)(=O)N2CCN(C(=O)CCc3c[nH]c4ccccc34)CC2)c(C)c1
13	CCn1c(SCC(=O)Nc2oc(C)c3c(C)n[nH]c(=O)c23)nc2sc(C)c(C)c2c1=O
14	O=C(CCC(=O)N1CCOCC1)NCCc1ccc(Cl)cc1Cl
15	O=C(Nc1cccc(NC(=O)c2ccccc2Cl)c1)c1cccc(Br)c1
16	c1ccc(COc2cccc(CN3CCCCC3)c2)cc1
17	CC(=O)NC(CC(=O)O)c1ccc(F)cc1 (centres undefined)
18	N#Cc1c(N)n(-c2ccc(O)cc2)c2nc3ccccc3nc12
19	COc1ccc2oc(-c3ccc(C)c(NC(=O)c4sc5ccccc5c4Cl)c3)nc2c1
20	Cc1cc(C#N)c(SCC(N)=O)nc1-c1ccc(F)cc1

Assay by compound,11,12,13,14,15,16,17,18,19,20
TRPML1 blocker,-9,0,23,14,38,23,7,35,-10,-16
TRPML1 ag,-0.2,0.2,2.1,0.0,1.6,1.0,-0.7,-0.4,-0.1,1.4
Six1-Eya2 blk,-2,3,1,0,.,5,3,?,.,3
CtBP-E1A blk,-1,0,-3,12,.,-5,-5,-20,.,-1
D2 ag,-1.4,-1.5,-6.1,-2.7,.,-5.2,-5.5,-0.7,.,3.5
PINK1 modulator,4.2%,0.5%,-0.2%,1.3%,0.6%,4.2%,1.1%,?,1.5%,0.4%

# Values in list order from above.
# PINK1 modulator, compounds 2 to 7: 5.3%, 0.7%, 3.8%, 1.1%, 1.1%, -0.6%

# Next section
21	COc1ccc(-n2ncc3c(=O)n(CC(=O)N4CCCc5ccccc54)cnc32)cc1
22	Cc1ccc(S(=O)(=O)NCCC(=O)NC2CC2)cc1
23	O=C(CNC(=O)c1ccccc1)OCc1cc(=O)n2ccsc2n1
24	CCc1nnc(NC(=O)c2c(C)nn(-c3ccccc3)c2Cl)s1
25	Cc1ccc(CN(C(=O)COc2ccc(Br)cc2)C2CCS(=O)(=O)C2)o1 (centres undefined)
26	CCOc1cc(N2CCOCC2)c(OCC)cc1NS(=O)(=O)c1ccc2c(c1)CC(=O)N2
27	COc1cc(/C=N/NC(=O)C(=O)NCc2ccco2)ccc1O
28	CCOC(=O)c1ccc(NC(=O)CCc2c(C)nc3ncnn3c2C)cc1
29	O=C(CSc1nc2ccccc2n1CCc1ccccc1)N1CCOCC1
30	CN(Cc1ccccc1)C(=O)COC(=O)CN1C(=O)c2ccccc2C1=O
31	CCCCN(C(=O)C1=COCCO1)c1c(N)n(Cc2ccccc2)c(=O)[nH]c1=O
32	O=C1CC(=C(c2ccccc2)c2ccccc2)C(=O)N1CCCCN1CCN(c2cccc(Cl)c2)CC1

Assay by compound,21,22,23,24,25,26,27,28,29,30,31,32
TRPML1 blocker,-17,-8,-1,-21,72,16,-20,61,-2,-1,20,39
TRPML1 ag,1.9,0.0,0.0,-0.5,1.3,-1.1,-0.7,-0.7,1.7,0.7,1.2,0.2
Six1-Eya2 blk,5,9,.,2,-1,-11,4,-4,0,2,-14,?
CtBP-E1A blk,5,.,.,8,1,1,7,-15,3,0,-10,?
D2 ag,-3.6,-5.4,.,-2.1,6.1,0.9,-4.5,0.6,1.6,-2.0,-3.8,3.2
PINK1 modulator,-15%[38.3 µM],-0.7%,0.0%,-1.7%,1.1%,0.3%,-1.0%,1.0%,0.5%,1.2%,-0.9%,3.8%

# In the list so far, 12 contain a halogen.
1	CCC(c1nnnn1-c1ccc2c(c1)OCCO2)N1CCN(c2ccc(C(F)(F)F)cn2)CC1 (centres undefined)
5	O=S(=O)(c1ccccc1)N(Cc1ccc(Cl)cc1)c1ccncc1
8	CCOC(=O)CNc1nc(Cl)nc(NC(C)(C)C)n1
10	CCOC1OC(=O)C(Cl)=C1Nc1ccc(C)cc1 (centres undefined)
14	O=C(CCC(=O)N1CCOCC1)NCCc1ccc(Cl)cc1Cl
15	O=C(Nc1cccc(NC(=O)c2ccccc2Cl)c1)c1cccc(Br)c1
17	CC(=O)NC(CC(=O)O)c1ccc(F)cc1 (centres undefined)
19	COc1ccc2oc(-c3ccc(C)c(NC(=O)c4sc5ccccc5c4Cl)c3)nc2c1
20	Cc1cc(C#N)c(SCC(N)=O)nc1-c1ccc(F)cc1
24	CCc1nnc(NC(=O)c2c(C)nn(-c3ccccc3)c2Cl)s1
25	Cc1ccc(CN(C(=O)COc2ccc(Br)cc2)C2CCS(=O)(=O)C2)o1 (centres undefined)
32	O=C1CC(=C(c2ccccc2)c2ccccc2)C(=O)N1CCCCN1CCN(c2cccc(Cl)c2)CC1

Assay by compound,1,5,8,10,14,15,17,19,20,24,25,32
TRPML1 blocker,.,20,-12,0,14,38,7,-10,-16,-21,72,39
TRPML1 ag,-0.2,0.2,0.9,0.9,0.0,1.6,-0.7,-0.1,1.4,-0.5,1.3,0.2
Six1-Eya2 blk,-11,4,-2,-1,0,.,3,.,3,2,-1,?
CtBP-E1A blk,-2,13,12,14,12,.,-5,.,-1,8,1,?
D2 ag,.,1.1,5.1,-1.7,-2.7,.,-5.5,.,3.5,-2.1,6.1,3.2
PINK1 modulator,1.5%,1.1%,-2.3%,0.4%,1.3%,0.6%,1.1%,1.5%,0.4%,-1.7%,1.1%,3.8%

# Assay outcomes deposited in PubChem BioAssay by National Center for Advancing Translational Sciences (NCATS).

# Compounds as they come. Share with any hit: about 1%.
